High-throughput results from PubChem BioAssay.
Ecoli rRNA inh: reduced GFP signal of wild-type E. coli, primary screen, bacterial rRNA inhibitor project, GFP/RFP fluorescence, OD600, single point; 350,000 tested, 1.6% active; E. coli WT GFP vs humanized-ribosome RFP mutants, 24 h; stronger effect = lower value; DMSO median 0, no signal -100; AID 720706, 2013; GFP signal change (wild-type ribosome), % (test concentration not listed);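 active = significant combined selectivity score with lowered wild-type GFP, culture density cut under 30%, mutant RFP and density less affected; inactive = any of these conditions unmet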; note: one replicate is shown; some compounds called inactive have numbers as strong as hits
Ecoli rRNA inh OD600: recorded beside Ecoli rRNA inh, whose call it bears; OD600 change, %; measured here: OD600 growth;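 optical density of the mix in the first replicate; 0 = DMSO median and -100 = no signal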
Ecoli rRNA inh RFP: second read-out of Ecoli rRNA inh, no call of its own (marks repeat the call); RFP signal change, %; measured here: RFP humanized mutant strains;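 first replicate; 0 = DMSO median and -100 = no signal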
An asterisk follows results filed as active; & = joins results of further samples.

Order of results – Ecoli rRNA inh	Ecoli rRNA inh OD600	Ecoli rRNA inh RFP
#1 CN(C)CC#Cc1ccc([C@H]2[C@H](CO)N3CCCCN(CC4CCOCC4)C[C@@H]23)cc1
    6.0	0.2	3.6
#2 C[C@@H]1CN([C@H](C)CO)C(=O)c2cccc(NC(=O)c3cnccn3)c2O[C@H]1CN(C)S(=O)(=O)c1cn(C)cn1
    4.7	5.2	-4.9
#3 C[C@@H]1CN([C@@H](C)CO)C(=O)c2cc(NC(=O)Nc3cccc4ccccc34)ccc2O[C@@H]1CN(C)C(=O)Nc1cccc2ccccc12
    0.4	13.1	0.0
#4 C[C@@H]1CN([C@H](C)CO)C(=O)Cc2cc(NS(=O)(=O)c3cccs3)ccc2O[C@H]1CN(C)C(=O)Nc1ccc(F)cc1
    3.8	4.5	2.3
#5 C/C=C/c1cnc2c(c1)C(=O)N([C@@H](C)CO)C[C@H](C)[C@H](CN(C)S(=O)(=O)c1ccccc1)O2
    0.3	8.8	1.0
#6 CC(C)NC(=O)NCC[C@H]1CC[C@H](NC(=O)Nc2ccccc2)[C@@H](CO)O1
    2.0	4.1	0.3
#7 COc1ccc2c3c(n(C)c2c1)[C@H](CO)N(CC1CCOCC1)CC31CN(C(C)=O)C1
    9.7	16.3	-5.9
#8 C[C@@H]1CN([C@H](C)CO)C(=O)c2cc(NC(=O)Cc3ccccc3)ccc2O[C@H]1CN(C)Cc1ccc(-c2ccccc2)cc1
    0.2	-4.8	6.2
#9 CCNC(=O)C1(C)CCCN(Cc2cc(-c3ccccc3)n(C)n2)C1 (stereo unspecified)
    3.8	3.0	0.2
#10 COc1ccc2c3c(n(C)c2c1)[C@H](CO)N(C(=O)c1ccc(F)cc1)CC31CCN(C)CC1
    0.1	-2.5	-2.1
#11 COc1ccc(-c2c(-c3ccsc3)oc3c2C(O)CCC3)cn1 (stereo unspecified)
    -9.7	-15.0	-0.9
#12 CC1CCCN(CC(=O)Nc2ccc(S(=O)(=O)N3C(C)CCCC3C)cc2)C1 (stereo unspecified)
    1.1	-3.0	2.8
#13 CO[C@@H]1CN(C)C(=O)c2cc(NC(=O)Nc3ccccc3)ccc2OC[C@H](C)NC[C@@H]1C
    2.2	-2.1	0.9
#14 CCC(=O)N(C)C[C@@H]1[C@@H](c2ccc(-c3cccnc3)cc2)[C@H](CO)N1C(C)=O
    -1.7	3.2	-2.0
#15 CN(C)c1ccc2c(c1)[C@@H]1C[C@H](CC(=O)O)O[C@H](CO)[C@@H]1O2
    9.1	11.6	-0.9
#16 Cc1noc(C)c1NC(=O)N(C)C[C@H]1Oc2ccc(N(C)C)cc2CC(=O)N([C@@H](C)CO)C[C@@H]1C
    0.0	16.3	0.6
#17 CCc1ccc(NC(=O)c2cc(S(=O)(=O)N3CCCC3)ccc2F)cc1
    -6.7	-12.1	-2.0
#18 COc1ccc(C#Cc2ccc([C@@H]3[C@H](CO)N4C(=O)CN(C(=O)c5ccncc5)C[C@@H]34)cc2)cc1
    2.9	12.9	0.0
#19 C[C@@H]1CCCCO[C@@H](CN(C)C(=O)Nc2cccc3ccccc23)[C@H](C)CN([C@H](C)CO)C(=O)c2cc(NC(=O)C3CCCCC3)ccc2O1
    5.2	3.6	-1.0
#20 CN1c2ccc(-c3ccccc3)cc2[C@@H]2[C@@H](CCN2C(=O)Cc2cccnc2)[C@@H]1CO
    -12.4	-32.7	5.8
#21 COc1cccc(S(=O)(=O)N[C@H]2CC[C@@H](CCn3cc(-c4ccccn4)nn3)O[C@@H]2CO)c1
    -0.5	5.5	-3.5
#22 C[C@@H]1CCCCO[C@@H](CN(C)C(=O)NC2CCCCC2)[C@H](C)CN([C@@H](C)CO)C(=O)c2cc(NC(=O)c3ccncc3)ccc2O1
    1.3	-3.6	1.0
#23 Cc1ccc2c(CN(Cc3ccccc3)Cc3ccccc3)cc(=O)oc2c1
    28.4	24.5	0.8
#24 C[C@H](CO)N1C[C@H](C)[C@@H](CN(C)S(=O)(=O)c2ccccc2)Oc2ncc(C#CC3(O)CCCC3)cc2C1=O
    -2.6	1.3	2.7
#25 C[C@@H]1CN([C@H](C)CO)C(=O)c2cc(C#CC3(O)CCCC3)cnc2O[C@@H]1CN(C)Cc1ccccn1
    3.5	15.1	-1.4
#26 O=C(C[C@H]1C[C@H]2c3cc(NC(=O)C4CCC4)ccc3O[C@H]2[C@@H](CO)O1)NCCc1ccccc1
    0.1	-4.5	-3.7
#27 CN(Cc1ccccc1)C(=O)c1csc([C@@H]2C[C@H](O)[C@@H](CO)O2)n1
    2.0	19.2	-0.5
#28 COCC(=O)N(C)C[C@H]1Oc2ncc(-c3ccc(C#N)cc3)cc2C(=O)N([C@@H](C)CO)C[C@H]1C
    -2.7	7.0	-0.8
#29 C[C@@H]1CCCCO[C@H](CN(C)Cc2ccc(C(F)(F)F)cc2)[C@@H](C)CN([C@H](C)CO)C(=O)c2cc(NC(=O)Nc3ccc4c(c3)OCO4)ccc2O1
    5.9	-0.1	-0.4
#30 COCC(=O)N1[C@H](C(=O)NCc2ccccc2Cl)[C@@H](CO)[C@@H]2Cn3c(cccc3=O)[C@@H]21
    3.2	12.6	-1.9
#31 CCNC(=O)C[C@H]1CC[C@@H]2[C@H](COc3ccc(NC(=O)Nc4cccc(Cl)c4)cc3C(=O)N2C)O1
    1.4	-3.8	7.3
#32 C[C@@H]1CN([C@H](C)CO)S(=O)(=O)c2ccc(/C=C/c3ccccc3)cc2O[C@H]1CN(C)Cc1cccnc1
    -3.5	-10.6	9.1
#33 Cc1noc(C)c1NC(=O)Nc1ccc2c(c1)CC(=O)N([C@@H](C)CO)C[C@H](C)[C@H](CN(C)C(=O)NC(C)C)O2
    1.6	2.6	-0.7
#34 CC(=O)NCC1(c2ccccc2)CCN(CCCC(=O)c2ccc(F)cc2)CC1
    9.6	4.6	3.2
#35 Cc1ccccc1S(=O)(=O)N1CCCCN2[C@@H](CO)[C@@H](c3ccc(-c4cncnc4)cc3)[C@@H]2C1
    -0.2	-3.3	1.7
#36 C[C@@H]1CN([C@H](C)CO)C(=O)c2cc(NC(=O)Nc3ccc(F)cc3)ccc2O[C@@H]1CN(C)Cc1ccc(C(=O)O)cc1
    0.7	-9.0	-0.8
#37 CN1c2ccc(C3=CCCCC3)cc2[C@@H]2[C@@H](CCN2C(=O)C2CCOCC2)[C@H]1CO
    15.6	32.1	4.5
#38 Cc1ccc(S(=O)(=O)Nc2ccc3c(c2)C(=O)N([C@H](C)CO)C[C@H](C)[C@H](CN(C)C(=O)Nc2cccc4ccccc24)OCCCC[C@@H](C)O3)cc1
    16.4&0.3	0.8&3.1	7.5&3.0
#39 C[C@H](CO)N1C[C@H](C)[C@H](CN(C)S(=O)(=O)c2ccccc2)OCCCC[C@H](C)Oc2ccc(NC(=O)Nc3ccccc3)cc2C1=O
    -1.8	6.3	0.1
#40 CCCNC(=O)N1CCC2(CC1)CN(Cc1cccc(F)c1)[C@@H](CO)c1[nH]c3cc(OC)ccc3c12
    -0.7	-2.8	1.3
#41 COCC(=O)N1[C@H](CO)[C@@H](c2ccccc2-c2ccccc2F)[C@@H]1C#N
    -0.2	6.3	-1.1
#42 COC(=O)c1ccc(COC(=O)C2CCN(S(=O)(=O)c3c(C)cc(C)cc3C)CC2)o1
    -2.3	-12.3	2.6
#43 C/C=C/c1ccc2c(c1)O[C@H](CN(C)S(C)(=O)=O)[C@H](C)CN([C@@H](C)CO)S2(=O)=O
    0.9	-8.2	-1.1
#44 CCCNC(=O)C[C@H]1CC[C@@H]2[C@H](COC[C@H](O)CN2C(=O)c2ccccn2)O1
    7.6	8.8	-1.6
#45 O=C(O)C[C@H]1CC[C@H](NC(=O)Nc2ccccc2)[C@@H](CO)O1
    1.4	-3.3	-2.6

Single records (already shown). Order of screens: Ecoli rRNA inh | Ecoli rRNA inh OD600 | Ecoli rRNA inh RFP
`C/C=C/c1ccc2c(c1)O[C@H](CN(C)S(C)(=O)=O)[C@H](C)CN([C@@H](C)CO)S2(=O)=O` is listed as 0.9 | -8.2 | -1.1
`COCC(=O)N1[C@H](CO)[C@@H](c2ccccc2-c2ccccc2F)[C@@H]1C#N` is listed as -0.2 | 6.3 | -1.1

Down the list, from the results shown.
Ecoli rRNA inh OD600, compounds 33 to 36 → 2.6, 4.6, -3.3, -9.0
Ecoli rRNA inh, compounds 33 to 36 → 1.6, 9.6, -0.2, 0.7
Ecoli rRNA inh RFP, compounds 33 to 36 → -0.7, 3.2, 1.7, -0.8

(continued)
Order of results – Ecoli rRNA inh	Ecoli rRNA inh OD600	Ecoli rRNA inh RFP
#46 CC(C)NC(=O)N1C[C@H]2[C@@H](c3ccccc31)[C@H](CO)N2C(=O)Nc1ccccc1
    4.4	19.1	-3.9
#47 CN(C)CC(=O)N1[C@H](C#N)[C@@H](c2ccc(C#CC3CC3)cc2)[C@H]1CO
    13.6	8.4	1.2
#48 C[C@H]1CCCCO[C@H](CN(C)S(=O)(=O)c2ccc(F)cc2)[C@@H](C)CN([C@@H](C)CO)C(=O)c2cc(NS(=O)(=O)c3cccs3)ccc2O1
    -2.9	-1.0	2.3
#49 Cc1noc(C)c1NC(=O)N(C)C[C@H]1Oc2ccc(NC(=O)Nc3cccc4ccccc34)cc2CC(=O)N([C@@H](C)CO)C[C@@H]1C
    0.6	8.7	-0.8
#50 CCOC(=O)C1=CCN(S(=O)(=O)c2cccc(Cl)c2)C1c1ccc(Cl)c(Cl)c1 (stereo unspecified)
    -5.1	-18.8	-1.4
#51 COc1ccc(CN(C)C[C@@H]2OCCCC[C@H](C)Oc3ccc(NC(=O)Nc4ccc(F)cc4)cc3C(=O)N([C@@H](C)CO)C[C@@H]2C)cc1
    -22.6	-28.4	17.6
#52 CC1C(=O)N(Cc2cn(CC3CCCCC3)nn2)CCS(=O)(=O)N1Cc1ccc(-c2ccncc2)cc1 (stereo unspecified)
    -31.9	-55.9	-2.3
#53 C[C@H]1CN([C@@H](C)CO)C(=O)c2cccc(NC(=O)Nc3cccc4ccccc34)c2O[C@H]1CN(C)C(=O)NC1CCCCC1
    -1.4	5.0	0.2
#54 C[C@@H]1CN([C@H](C)CO)C(=O)Cc2cc(NC(=O)Nc3ccc4c(c3)OCO4)ccc2O[C@H]1CN(C)S(=O)(=O)c1ccc(F)cc1
    3.4	0.6	-1.0
#55 COc1ccc(NC(=O)Nc2cccc3c2O[C@@H](CN(C)Cc2ccc(Cl)c(Cl)c2)[C@H](C)CN([C@H](C)CO)C3=O)cc1
    -4.2	-4.3	1.1
#56 O=C(C[C@H]1C=C[C@@H](NC(=O)c2ccc(F)cc2)[C@H](CO)O1)NCCc1ccncc1
    -1.9	-3.6	0.6
#57 CCC(=O)Nc1ccc2c(c1)C(=O)N(C)C[C@H](OC)[C@H](C)CN(C(=O)C1CCC1)[C@@H](C)CO2
    0.5	4.8	2.0
#58 CO[C@@H]1CN(C)C(=O)c2ccc(NC(=O)C3CCCCC3)cc2OC[C@H](C)N(Cc2cccnc2)C[C@H]1C
    -4.1	-5.2	-4.2
#59 CCCC(=O)Nc1ccc2c(c1)C(=O)N(C)[C@@H]1CC[C@@H](CC(=O)Nc3ccccc3)O[C@H]1CO2
    -1.7	-1.1	-0.4
#60 CC(C)[C@H]1COCc2cn(nn2)CC[C@@H](Cc2ccc(Cl)cc2)C(=O)N1
    -0.1	0.3	-2.8
#61 CN(C)CC(=O)N[C@H]1CC[C@@H](CCn2cc(C3CCCCC3)nn2)O[C@@H]1CO
    -1.1	-3.9	1.6
#62 COc1ccc(C=C2SC(=S)N(CCCN3CCOCC3)C2=O)c(OC)c1
    -9.2	1.0	7.4
#63 CN(C)C(=O)[C@H]1[C@H](CO)[C@H]2Cn3c(ccc(-c4ccncc4)c3=O)[C@@H]1N2CC1CCCC1
    -2.6	1.9	-1.4
#64 Cc1noc(C)c1NC(=O)Nc1ccc2c(c1)CC(=O)N([C@H](C)CO)C[C@@H](C)[C@H](CN(C)S(=O)(=O)c1cn(C)cn1)O2
    2.7	22.2	-1.3
#65 COc1cc(OC)cc(-c2noc([C@@H]3O[C@H](CO)[C@@H](O)[C@H]3O)n2)c1
    4.2	12.9	-2.2
#66 Cc1ccc(S(=O)(=O)N(C)C[C@@H]2OCCCC[C@@H](C)Oc3ccc(NS(C)(=O)=O)cc3C(=O)N([C@H](C)CO)C[C@@H]2C)cc1
    -2.9	-1.0	-0.9
#67 O=C(c1ccc2c(c1)CCC2)N1CCN(Cc2ccccc2)CC1
    -3.9	-7.4	4.3
#68 CC(C)NC(=O)Nc1ccc2c(c1)C(=O)N([C@H](C)CO)C[C@@H](C)[C@H](CN(C)C(=O)Nc1ccccc1)OCCCC[C@@H](C)O2
    -4.5	-4.3	-1.5
#69 COc1ccccc1CNC(=O)C[C@@H]1C[C@H]2c3cc(NC(=O)Nc4ccccc4F)ccc3O[C@H]2[C@@H](CO)O1
    -4.2	-7.7	6.8
#70 Cc1cccc(-c2ccc([C@@H]3[C@@H](CO)N4CCCCN(S(=O)(=O)c5ccccc5C)C[C@@H]34)cc2)c1
    2.1	23.4	2.1
#71 Cc1ccc(S(=O)(=O)N(C)C[C@H]2OCCCC[C@H](C)Oc3ccc(NC(=O)Nc4cccc5ccccc45)cc3C(=O)N([C@H](C)CO)C[C@H]2C)cc1
    0.5	-1.6	-1.0
#72 C#Cc1ccc(NC(=O)C2(C)CCN2C(=O)Cc2ccc(C(C)C)cc2)cc1 (stereo unspecified)
    -11.4	-27.4	-0.8
#73 COc1ccc(NC(=O)Nc2cccc3c2O[C@H](CN(C)C(=O)Nc2ccc(F)cc2)[C@H](C)CN([C@H](C)CO)C3=O)cc1
    3.8	5.2	-2.1
#74 CC1C=NC(S(=O)(=O)N2CC[C@@H]3[C@H](CO)N(C)c4ccc(C5=CCCCC5)cc4[C@@H]32)=N1 (stereo partly specified)
    -13.4	-8.9	3.5
#75 C[C@@H]1CN([C@@H](C)CO)S(=O)(=O)c2ccc(C#CC3CCCC3)cc2O[C@H]1CN(C)C(=O)Nc1cc(F)ccc1F
    1.0	2.1	-2.7

The list is partial (hit frequency here may not be typical).
